H5N1 antiviral – MDCK cell protection from H5N1 avian flu. AID 740, 2007. inhibition, % at 50 µM. actives 0.07% (n = 96,000). cytopathic effect, luminescence, 72 h; active compounds read high; no value below 0 was filed and about half of the inactive calls have no number; reference of the scale not given here; in the data active = inhibition above about 25%
* marks the source's active call; other numbers are inactive results; i = inactive. Not all compounds are listed; count on the stated rates, not on these rows.

SMILES	H5N1 antiviral
Cc1ccc(S(=O)(=O)/N=C(\c2ccc(Cl)cc2)N2CCOCC2)cc1	0.9
CC(=O)NC(Cc1ccc(C(C)C)cc1)C(=O)NC1CCN(c2nc(C)cc(C)n2)CC1 (configuration not stated)	i
CCn1cc(/C=C2\SC(=O)N(CC(=O)Nc3ccc4c(c3)OCO4)C2=O)c2ccccc21	i
COC(=O)c1nc2n(n1)C(c1ccccc1OC)C1=C(CCCC1=O)N2 (configuration not stated)	0.6
Cc1ccc(-c2ccc(=O)n(CC(=O)NCc3ccco3)n2)cc1	0.2
CSC1=NCCN1C(=O)c1c(F)cccc1F	i
COc1cc2cc(C(c3nnnn3C3CCCC3)N3CCCCCC3)c(=O)[nH]c2cc1OC (configuration not stated)	i
COc1ccc(-c2csc(N3C(=N)SCC3=O)n2)cc1	0.0
O=C(CSc1nnnn1-c1ccccc1)NC(=O)NCc1ccco1	i
COc1cccc(/C=N/NC(=O)C(=O)N2CCCC2)c1O	0.4
CCOCCCn1cnc2c([nH]c3cc(OC)ccc32)c1=O	1.4
Cc1cccc(NC(=O)c2cc3n(n2)C(C(F)(F)F)CC(c2ccc4c(c2)OCO4)N3)c1 (configuration not stated)	1.4
COc1cccc(NC(=O)NCCCSC2CCCCC2)c1	i
Nc1nnc(N2CCCCCC2)s1	1.4
COc1ccc(-c2cc(-c3ccccc3)nc(N3CCCC3)n2)cc1OC	0.5
Cc1cc(=O)n2nc(N3CCCC(C(=O)N4CCc5ccccc54)C3)sc2n1 (configuration not stated)	1.8
Cc1nn(Cc2ccccc2)c2sc(C(=O)NCc3cccnc3)cc12	0.8
O=C1CC(NNC(=O)c2ccccc2)C(=O)N1 (configuration not stated)	0.4
Cc1onc(-c2c(Cl)cccc2Cl)c1C(=O)NCc1ccccn1	1.9
Cc1cccc(C)c1NC(=O)CSc1nnc(-c2ccco2)c(-c2ccco2)n1	1.2
CCOc1cc(-c2c(C#N)c(=O)[nH]c3c2c(C)nn3-c2ccc(F)cc2)ccc1O	10.1
CCS(=O)(=O)N1CCCC(C(=O)NCCCOC)C1 (configuration not stated)	i
COc1ccc(S(=O)(=O)N(CC(=O)Nc2ccc3c(c2)OCO3)c2ccccc2OC)cc1	i
CCCOP(=O)(c1ccc(N(C)C)cc1)C(O)c1ccncc1 (configuration not stated)	0.1
CCOC(=O)CSc1nnc(NCC(=O)OC(C)C)c(=O)[nH]1	i
FC(F)(F)c1cccc(Cn2nnnc2-c2cc(Cl)cc(Cl)c2)c1	1.8
Cc1cc(NS(=O)(=O)c2ccc(NC(=O)c3oc4ccccc4c3C)cc2)no1	i
COc1ccc(C2C(C(=O)c3ccco3)=C(O)C(=O)N2CCOCCO)cc1OC (configuration not stated)	i
CC(NC(=O)C(CC(=O)OC(C)(C)C)NC(=O)OC(C)(C)C)C(N)=O (configuration not stated)	i
CSCCC1(C(=O)O)NC(c2ccccc2O)C2C(=O)N(C(C)C)C(=O)C21 (configuration not stated)	0.4
Fc1cccc(F)c1CN1CCN(c2ncccn2)CC1	i
COc1ccccc1-n1c(-c2ccoc2)nc2ccccc2c1=O	3.0
O=S(=O)(c1ccccc1Cl)N1CCCC(c2nc(-c3cccnc3)no2)C1 (configuration not stated)	0.3
COc1ccc(Cl)cc1NC(=O)CN1CCC(n2nnc3cc(F)ccc32)CC1	i
CS(=O)(=O)N(CC(=O)N1CCN(c2ccccc2)CC1)c1cccc(Br)c1	0.9
Cc1cc(-n2c(C)cc(C(=O)COC(=O)CN=C3NS(=O)(=O)c4ccccc43)c2C)no1	i
O=C(CCCOc1ccc(Cl)cc1)NCC1CCCO1 (configuration not stated)	0.1
CN(CCNC(=O)C1CCN(S(=O)(=O)N2CCOCC2)CC1)CCc1ccccc1	1.4
CCOCCCNC(=O)CN1C2CCC1CC(O)(c1ccc(OC)cc1)C2 (configuration not stated)	0.9
CC(C)CN(C(=O)COC(=O)Cc1c[nH]c2ccccc12)C1CCS(=O)(=O)C1 (configuration not stated)	0.8
Cc1ccc(C)n1-n1cnc2sc(-c3ccccc3)cc2c1=O	i
O=C(NNS(=O)(=O)c1ccccc1)c1cc2cc3ccccc3nc2s1	0.4
O=CC(Cl)P(=O)(N1CCCCC1)N1CCCCC1 (configuration not stated)	i
CCc1ccc2[nH]c(=O)c(CN(Cc3ccccc3OC)C(=O)Nc3ccccc3OC)cc2c1	i
CCOC(=O)C1=C(C)N(C)C(=O)NC1c1c(C)nn(-c2ccccc2)c1C (configuration not stated)	0.5
CC(=O)Nc1ccc(NC(=O)c2cccc(C(=O)OC(C)C)n2)cc1	1.8
CN(Cc1ccc(O)cc1)C1CCCCC1	i
Cc1ccc(OCc2nnc(SCC(=O)NCc3ccccc3)n2C)cc1	i
Cc1ccc(S(=O)(=O)N2c3cc(C)ccc3OCC2C(C)(C)C)cc1 (configuration not stated)	0.9
Cc1oc(CSCC2CCCO2)cc1C(=O)O (configuration not stated)	i
Nc1nnc(SCCOc2cccc(Br)c2)s1	0.9
CCOC(=O)c1c(-c2ccccc2)oc2ccc(OC(C)=O)cc12	i
COc1ccc(-c2nn(C)c(=O)c3ccccc23)cc1NS(C)(=O)=O	i
CCN(CC)CC(C)OC(=O)c1cc(OC)c(OC)c(OC)c1 (configuration not stated)	0.4
COc1cc(OC)cc(C(=O)N2CCN=C2SCc2cccnc2)c1	2.8
O=C(Nc1nc(-c2ccccc2)cs1)c1cccs1	i
CCOC(=O)c1c(NC(=O)c2ccn(CC)n2)sc2c1CCCC2	i
COc1ccc(S(=O)(=O)n2nc(OC(=O)c3ccccc3)cc2N)cc1	i
CCCCn1nc2cc(C(=O)NCc3cc(C(F)(F)F)cc(C(F)(F)F)c3)ccc2c1OCC	1.3
COC(=O)CSc1nnc(C)n1-c1ccc(C)cc1	0.5

Going on with the list:
SMILES	H5N1 antiviral
CN(C)c1ccc(N/C=C/C(=O)c2ccccc2)cc1	i
O=C(O)Cn1c(SCc2ccccc2)nc2ccccc21	i
O=C(NCc1cccnc1)c1cc(-c2cccs2)on1	i
Cc1c(NC(=O)CN2C(=O)c3cccc4cccc2c34)c(=O)n(-c2ccccc2)n1C	i
Cc1ccc(-c2cc(C(=O)OCC(=O)Nc3cc(C)on3)c3ccccc3n2)c(C)c1	i
COc1ccc(-c2cc(C(=O)NC(C(=O)O)C(C)C)c(C)o2)cc1OC (configuration not stated)	i
COc1cc2[nH]c(=O)n(CCCCCC(=O)N3CC=C(c4ccccc4)CC3)c(=O)c2cc1OC	i
CCCN(CCC)C(=O)CC(c1ccccc1)c1cc(C)ccc1O (configuration not stated)	0.3
CCOC(=O)c1ccc2[nH]c(C)c(CCC(C)=O)c(=O)c2c1	i
O=S(=O)(c1ccc2c(c1)OCCO2)N1CCC(n2nnc3cc(F)ccc32)CC1	1.5
COc1ccc(C2CC(c3ccccc3)=NN2c2ccc(/C=N/NC(=O)c3ccncc3)cc2)cc1 (configuration not stated)	0.1
CCN(CC)S(=O)(=O)c1ccc(NC(=O)CSc2cccc[n+]2[O-])cc1	2.7
O=C(O)c1ccccc1NS(=O)(=O)c1cccc2cccnc12	0.3
Cc1ccc(-c2noc(CSc3nc(N)cc(N)n3)n2)cc1	0.7
CCCS(=O)(=O)N1CCN(Cc2ccco2)CC1	i

Given as comma-separated lines: entries from further up
canonical_smiles,H5N1 antiviral
CCCCn1nc2cc(C(=O)NCc3cc(C(F)(F)F)cc(C(F)(F)F)c3)ccc2c1OCC,1.3
COC(=O)CSc1nnc(C)n1-c1ccc(C)cc1,0.5
CN(C)c1ccc(N/C=C/C(=O)c2ccccc2)cc1,i
O=C(O)Cn1c(SCc2ccccc2)nc2ccccc21,i
O=C(NCc1cccnc1)c1cc(-c2cccs2)on1,i
Cc1c(NC(=O)CN2C(=O)c3cccc4cccc2c34)c(=O)n(-c2ccccc2)n1C,i
Cc1ccc(-c2cc(C(=O)OCC(=O)Nc3cc(C)on3)c3ccccc3n2)c(C)c1,i
COc1ccc(-c2cc(C(=O)NC(C(=O)O)C(C)C)c(C)o2)cc1OC (configuration not stated),i
COc1cc2[nH]c(=O)n(CCCCCC(=O)N3CC=C(c4ccccc4)CC3)c(=O)c2cc1OC,i
CCCN(CCC)C(=O)CC(c1ccccc1)c1cc(C)ccc1O (configuration not stated),0.3
CCOC(=O)c1ccc2[nH]c(C)c(CCC(C)=O)c(=O)c2c1,i
O=S(=O)(c1ccc2c(c1)OCCO2)N1CCC(n2nnc3cc(F)ccc32)CC1,1.5
COc1ccc(C2CC(c3ccccc3)=NN2c2ccc(/C=N/NC(=O)c3ccncc3)cc2)cc1 (configuration not stated),0.1
CCN(CC)S(=O)(=O)c1ccc(NC(=O)CSc2cccc[n+]2[O-])cc1,2.7
O=C(O)c1ccccc1NS(=O)(=O)c1cccc2cccnc12,0.3
Cc1ccc(-c2noc(CSc3nc(N)cc(N)n3)n2)cc1,0.7
CCCS(=O)(=O)N1CCN(Cc2ccco2)CC1,i

Remaining list, next part:
SMILES	H5N1 antiviral
O=C(NC1=NCCS1)C12CC3CC(C1)CC(C(=O)NC1=NCCS1)(C3)C2	i
CN(C)S(=O)(=O)c1cccc(NC(=O)c2cc3ccccc3o2)c1	i
CCN(CC)c1ccc(NC(=O)COC(=O)CCC(=O)c2ccc(F)cc2)cc1	i
COc1ccc(NC(=O)CSc2nnc(-c3ccccc3Cl)n2Cc2ccco2)c(OC)c1	0.5
COc1ccc(CONS(=O)(=O)c2ccc(NC(C)=O)cc2)cc1Cl	0.4
Cc1cccc(-n2cnc(C(=O)Nc3cccnc3)c2)n1	1.8
Cn1cc(S(=O)(=O)CC(=O)N2CCc3ccccc32)c2ccccc21	0.1
COc1cccc(-n2c(Cc3cc(=O)[nH]c(=O)[nH]3)nnc2SCC(=O)NC2CCCC2)c1	0.5
COC(=O)Nc1sc2c(c1C(=O)N1CCOCC1)CCC(C)C2 (configuration not stated)	1.6
CCOc1ccccc1OCC(=O)NN1Cc2ccccc2C1=N	i
O=C(O)c1ccc(CN2C(=O)c3ccccc3S2(=O)=O)cc1	i
Cc1cc2ccccc2n1CCNC(=O)C(C)(C)C	i
Cc1cc(NC(=O)CSc2nnc(CNc3cccc(C(F)(F)F)c3)n2Cc2ccco2)no1	i
COc1cccc(C(=O)Oc2cc(N)n(S(=O)(=O)c3ccc(C)cc3)n2)c1OC	i
c1ccc2c(c1)CCCn1nnnc1-2	0.5
CCCCSc1[nH]c(=O)c(C(=O)OCC)cc1C#N	0.1
CCN(CC)C(=O)CSC1c2ccccc2C(=O)N1c1ccccc1 (configuration not stated)	0.1
O=C(NC1=NCCS1)c1ccc(Br)s1	i
O=C(NC1CCN(C(=O)Nc2cccc(F)c2)CC1)C1CCCCC1	0.1
Cc1ccc(S(=O)(=O)N2CCN(C(=O)COc3ccc(-c4nnco4)cc3)CC2)cc1	1.6
O=C(c1nc2ccccc2s1)N1CCSCC1	1.2
COc1nonc1NCn1nc(C)cc1C	i
N#Cc1ccsc1NC(=O)CN1CCCCC1	i
Cc1cc(NC(=O)CSc2nc3ccsc3c(=O)n2Cc2ccccn2)n[nH]1	8.1
CCN1C(=O)c2cccc3c(S(=O)(=O)Nc4ccc(OC)cc4OC)ccc1c23	2.9
COc1cccc(N2CCN(CC(=O)Nc3nc4c(s3)CC(C)CC4)CC2)c1 (configuration not stated)	i
CCc1ccc(S(=O)(=O)NCCc2cn3ccsc3n2)s1	0.3
O=C(Cn1nc(C(F)(F)F)c2c1CCC2)NCc1ccc(F)cc1	i
O=c1c2ccccc2nc(SCc2nc(-c3ccccc3)no2)n1-c1ccc(F)cc1	1.6
CCn1cc(C2Nc3ccccc3C(=O)N2O)c(C)n1 (configuration not stated)	i
CCCCNC(=S)N/N=C/c1ccc(C)s1	i
COCCCn1c(SCC(=O)NCc2ccco2)nc2sc3c(c2c1=O)CCC3	i
CCOc1nc(C)ccc1-c1noc(-c2ccccn2)n1	i
CCOC(=O)c1sc2ncn(C(CC)C(=O)OCC)c(=O)c2c1C (configuration not stated)	i
COc1cccc(C(=O)CN2CCN(S(=O)(=O)c3ccc(Br)cc3)CC2)c1	i
COc1ccc(-c2noc(CCC(=O)NCCN(C)Cc3ccccc3)n2)cc1	0.2
O=C(NC1CCCC1)C1CCN(S(=O)(=O)c2cccc3cccnc23)CC1	0.5
CC1=NN(c2nc(C)cc(C)n2)C(=O)C1CCC(C)C (configuration not stated)	0.8
O=C(NCc1ccc2c(c1)OCO2)c1cccnc1	0.1
COC(=O)CNC(=O)C(C)NC(=O)OCc1ccccc1 (configuration not stated)	0.5
CCOC(=O)N1CCN(c2nc3ccccc3nc2C(C#N)S(=O)(=O)c2ccc(C)cc2)CC1 (configuration not stated)	i
COc1ccc(/C=N/NC(=O)c2csc(-n3nc(C)cc3C(F)(F)F)n2)cc1	i
COc1ccccc1C1C(C#N)=C(N)Oc2cc(C)n(CCCn3ccnc3)c(=O)c21 (configuration not stated)	i
Cc1cc(C(=O)OCC(=O)NC(C)C)c(C)o1	i
CCOC(=O)Cc1[nH]nc2c1C(c1ccoc1)C(C#N)=C(N)O2 (configuration not stated)	i
O=C(c1ccc(F)cc1)N(Cc1ccccc1)C1CCS(=O)(=O)C1 (configuration not stated)	0.7
COc1ccc(NC(=O)c2cccs2)cc1NC(=O)c1ccco1	1.1
CCCOc1ccc(C(C)=O)cc1CC(C(=O)OCC)C(=O)OCC	0.2
CCOC(=O)N1CCN(C(=O)CNC(=O)c2nn(-c3ccc(OC)cc3)c(=O)c3ccccc23)CC1	i
CCOC(=O)C1CCN(S(=O)(=O)c2cc(Cl)c(C)cc2OC)CC1	i
Cc1cc(C)cc(Oc2ccc(N)cc2)c1	i
CC(=O)Oc1cccc(N2C(=O)c3ccc(C(=O)O)cc3C2=O)c1	0.1
CNC(=O)c1ccc2snnc2c1	0.2
CCc1c(C)nc2[nH]nc(NC(=O)C(F)(F)F)n2c1=O	1.4
CNc1nc(NC)nc(-n2c(C(F)(F)F)nc3ccccc32)n1	1.6
Cc1ccc2c(c1)c1c(n2CC(O)Cn2c(C)nc3ccccc32)/C(=N\O)CCC1 (configuration not stated)	i

Screening results deposited in PubChem by SRMLSC.
